# HNF4A DNA FP = change in binding of human HNF4A to DNA, primary screen, biochemical, fluorescence polarization, FITC-DNA; Hepatocyte nuclear factor 4-alpha (Homo sapiens), P41235; 1 h; activity change, % at 10 µM; actives 0.3% (n = 360,000); AID 1224865, 2016; in the data active = activity change above about 30%, passing the limit was not always enough;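 also: controls were the assay level and a saturating level of protein; the project sought stronger binding though the title names inhibitors; some compounds called inactive have numbers as strong as hits; positive values seem to mean higher polarization but the record does not say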
# RanGTP-Impb inh = inhibitors of RanGTP-importin-beta interaction, primary screen, biochemical, FRET, CFP-Ran, YFP-importin-beta, homogeneous. Ran GTPase (GTP-bound) - importin-beta complex. cell-free CFP-Ran/YFP-importin-beta FRET ratio. inhibition, % (test concentration not listed). actives 1.1% (n = 300,000). AID 2216, 2009;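 active = most replicates above 15%; inconclusive = exactly half above 15%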;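 also: 0% = DMSO wells and 100% = Ran loaded with GDP instead of GTP; wells of about 40 µL received 100 nL stock; the first replicate is given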
# Vif TR-FRET = inhibitors of Vif binding to APOBEC3G peptide, primary screen, biochemical, TR-FRET, GST-Vif 1-94, biotin-A3G peptide, dose response retest (AID 1117319) | inhibition, %; hits with a dose series show IC50 in µM | TR-FRET GST-Vif / biotin-A3G peptide binding; higher % means a stronger effect; test concentration not given here; strong numbers were not always called active | actives 0.57% (n = 260,000);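 active = above the screen mean plus three standard deviations and confirmed in dose response; inconclusive = results disagree or hit not tested in dose response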;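 also: Vif residues 1-94 fused to GST binding biotinylated APOBEC3G peptide 110-148; 0% = full assay without inhibitor and 100% = GST in place of GST-Vif; retest series ran down from 100 µM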
# FGF22 binding = binders of human FGF22 protein, primary screen, FGF22 synaptogenesis inhibitor project, biophysical, thermal shift, single point. Fibroblast growth factor 22 (Homo sapiens), Q9HCT0. recombinant FGF22 thermal shift, SYPRO orange fluorescence; percent of sucrose octasulfate shift, DMSO zero. calls only at 9.99 µM. actives 1.5% (n = 340,000);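 active = melting point raised past a set limit in the mean and every replicate; inconclusive = no clear call; three in four hits are not shown here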
# Target sequence (Q9HCT0 whole entry, looked up): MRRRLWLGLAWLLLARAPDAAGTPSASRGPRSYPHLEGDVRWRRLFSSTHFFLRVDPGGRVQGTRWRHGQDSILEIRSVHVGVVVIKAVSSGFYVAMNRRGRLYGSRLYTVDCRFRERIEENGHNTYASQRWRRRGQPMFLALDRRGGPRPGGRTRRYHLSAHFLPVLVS
# UCH37 DUB inh = inhibitors of human UCH37 deubiquitinase, primary screen, biochemical, Ub-AMC cleavage, fluorescence; actives 0.33% (n = 330,000); inhibition, % (test concentration not listed); Ubiquitin carboxyl-terminal hydrolase isozyme L5 (Homo sapiens), Q9Y5K5; purified proteasome/UCH37; AID 588478, 2011;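 active = mean of two replicates above 20%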;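 also: 0% = compound-free wells with enzyme and 100% = wells lacking proteasome; stock transfer was 100 nL into about 20 µL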
# Target sequence (Q9Y5K5 whole entry, looked up): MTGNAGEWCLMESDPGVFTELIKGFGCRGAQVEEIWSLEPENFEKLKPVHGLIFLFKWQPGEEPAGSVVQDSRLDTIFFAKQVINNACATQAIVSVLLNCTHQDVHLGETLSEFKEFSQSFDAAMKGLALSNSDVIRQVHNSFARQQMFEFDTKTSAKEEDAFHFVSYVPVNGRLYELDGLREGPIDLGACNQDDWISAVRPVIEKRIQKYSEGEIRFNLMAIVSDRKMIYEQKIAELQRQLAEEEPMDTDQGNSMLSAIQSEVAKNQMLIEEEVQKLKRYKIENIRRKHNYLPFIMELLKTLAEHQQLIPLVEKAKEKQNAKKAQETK
#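 Material: Human UCH37 enzyme supplied as purified proteasome complex | Schedule: 30 min compound-proteasome preincubation then 25 min substrate reaction, room temperature | Detection: AMC fluorescence from Ub-AMC cleavage, excitation 355 nm, emission 460 nm | Benchmarks: Wells without proteasome as full block, compound-free enzyme plus substrate as uninhibited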
# Ecoli growth = E. coli growth inhibition, primary screen, OD600 | Escherichia coli growth, 23 h; hits give low values | OD600 absorbance (concentration not given with the values) | actives 0.21% (n = 330,000) | AID 1053175, 2014;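 active = OD600 absorbance below the run mean of sample wells minus 3.6 SD, in any replicate, cut at about 0.56 in these data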;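 also: stock transfer was 300 nL into about 60 µL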
# AF4-AF9 inh = inhibitors of AF4 peptide binding to AF9, primary screen, biochemical, AlphaScreen, biotin-AF4 peptide, FLAG-AF9, single point. inhibition, % at 10 µM. actives 0.47% (n = 350,000);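 active = every replicate reaching a set inhibition limit, whatever the replicate mean, cut at about 25% in these data; inconclusive = mean inhibition reaches that limit but some replicates miss it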;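 also: 0% = plate neutral control median and 100% = total signal loss; the record names both 10 and 1 µM as test concentration; the first replicate is given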
# Target sequence (P42568 whole entry, looked up): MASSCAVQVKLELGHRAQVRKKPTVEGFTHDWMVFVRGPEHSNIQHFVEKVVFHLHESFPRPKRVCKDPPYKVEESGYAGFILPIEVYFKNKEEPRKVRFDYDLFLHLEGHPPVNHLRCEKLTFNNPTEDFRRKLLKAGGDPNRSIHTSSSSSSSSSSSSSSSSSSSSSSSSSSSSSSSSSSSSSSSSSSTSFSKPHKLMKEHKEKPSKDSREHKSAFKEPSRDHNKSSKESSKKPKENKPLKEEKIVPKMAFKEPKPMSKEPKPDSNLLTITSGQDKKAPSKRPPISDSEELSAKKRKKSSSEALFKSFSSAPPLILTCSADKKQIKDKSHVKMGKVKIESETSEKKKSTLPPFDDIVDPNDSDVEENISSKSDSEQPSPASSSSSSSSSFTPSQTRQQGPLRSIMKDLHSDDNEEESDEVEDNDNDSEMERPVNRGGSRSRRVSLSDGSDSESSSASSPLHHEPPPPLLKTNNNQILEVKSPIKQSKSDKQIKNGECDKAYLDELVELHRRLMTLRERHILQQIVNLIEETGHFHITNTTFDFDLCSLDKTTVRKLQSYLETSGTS
# The depositor's hits bear a star; i = inactive; ? = inconclusive; nt = not tested or not shown; & = joins results of further samples.
SMILES,HNF4A DNA FP,RanGTP-Impb inh,Vif TR-FRET,FGF22 binding,UCH37 DUB inh,Ecoli growth,AF4-AF9 inh
CN(Cc1cn(-c2ccccc2)nc1-c1ccc(Cl)cc1)C(=O)CCC(=O)O,-1.9,-3.1,-4%,i,5.4,0.72,-6.1
COc1cccc(CNc2nc3nc(C)c(Cl)c(=O)n3[nH]2)c1,-2.1,-1.1,8%,i,4.0,0.67,-2.2
CCC(=O)N1CCN(c2ccc(Cl)cc2NC(=O)c2ccc(Br)o2)CC1,0.1,1.7,-2%,nt,2.8,0.73,nt
COc1ccccc1-c1ccc(/C=N/O)o1,-1.1,2.9,-2%,i,nt,nt,2.0
C=CC[C@@H](CC(=O)NCCO)C(=O)NC[C@H](OC(=O)[C@@H](CC=C)CC(=O)OC(C)(C)C)c1ccccc1,-2.8,nt,nt,i,0.7,nt,-1.5
CC1CCC/C(=N\NC(=O)c2ccncc2)C1 (stereo not drawn),4.4,-1.1,nt,i,nt,nt,-1.3
COc1ccc2oc(C(=O)N3CCN(c4ncccn4)CC3)c(C)c2c1,1.2,-0.2,nt,i,-3.1,0.67,-2.2
COc1ccccc1CCNC(=O)CSc1ccc(-c2ccco2)nn1,1.2,4.7,2%,i,3.9,0.7,1.0
COc1ccccc1/C=N\Nc1cn[nH]c(=O)c1Cl,-2.5,4.3,5%,i,nt,nt,1.5
NC(CCc1ccccc1)c1csc(NC(=O)NCCc2ccccc2)n1 (stereo not drawn),0.5,nt,nt,i,nt,nt,5.8
CCCCNC(=O)C1(C)CCCCN1C(=O)c1ccc(C#N)cc1 (stereo not drawn),0.8,nt,nt,i,nt,nt,-0.6
Cc1ccccc1C1c2[nH]c3ccccc3c2C[C@H]2C(=O)N(C3CC3)CC(=O)N12 (stereo partly drawn),-5.5,2.7,nt,i,-2.0,0.7,4.5
O=C(O)CC(c1ccccc1)c1ccc2c(c1)OCO2 (stereo not drawn),1.4,nt,nt,i,nt,nt,0.2
COC(=O)C1CCN(c2cc(Cl)nc(N)n2)CC1,1.1,0.8,1%,nt,-4.2,0.68,-3.1
O=C(c1ccc(COc2ccccc2)o1)N1CCN(S(=O)(=O)c2ccccc2Cl)CC1,1.9,nt,2%,i,nt,nt,13
CCCOc1ccc(NC(=O)CNC(=O)c2cc(OC)cc(OC)c2)cc1OCCC,2.6,-0.4,-10%,i,1.7,0.68,-0.1
CCOC(=O)c1sc2nc(C)nc(Nc3ccc(OC)c(OC)c3)c2c1C,1.8,-1.8,-2%,i,-22,0.66,-1.4
Nc1c(-c2cccc(Cl)c2)cnn1-c1cccc([N+](=O)[O-])c1,4.6,-2.7,-1%,nt,3.5,0.64,nt
Cc1ccc(CN2CCN(/N=C/c3cc(Br)ccc3F)CC2)cc1,2.1,-4.4,nt,i,nt,nt,7.3
COC(=O)c1ccc2nc(-c3ccc(C#N)cc3)c(Cc3ccsc3)n2c1,-6.7,nt,nt,i,nt,nt,-2.1
COc1ccccc1OCC(=O)OC/C(O)=C(\C#N)c1nc2ccccc2[nH]1,11,3.2,11%,i,3.3,0.67,0.0
CCCCC(=O)Nc1ccc(C(N)=O)cc1,1.8,-2.0,6%,nt,0.4,0.66,nt
CN(NC(=O)COc1ccccc1)C1=NS(=O)(=O)c2ccccc21,1.6,6.2,10%,i,4.2,0.7,-2.5
Cc1cc(NC(=O)C(C)SCC(=O)OCc2ccc(Cl)cc2Cl)no1 (stereo not drawn),0.5,nt,-5%,i,5.9,0.7,1.7
CC1CCc2nc3ccccc3c(C(=O)OCC(=O)NC3CCS(=O)(=O)C3)c2C1 (stereo not drawn),4.8,-0.4,1%,i,-6.4,0.71,-0.2
Clc1ccc(-c2csc(NNC3=NCCCCC3)n2)cc1,-4.6,-2.9,4%,nt,1.4,0.74,nt
CC1=Nc2ccccc2N=C(NC(=O)CSC(=S)N2CCN(C)CC2)C1c1ccccc1 (stereo not drawn),1.7,-3.8,-2%,nt,0.2,0.64,6.9
CCCN(CCC)C(=O)C1CCCN(S(=O)(=O)c2ccc3c(c2)oc(=O)n3C)C1 (stereo not drawn),4.1,0.3,21%,i,-1.2,0.68,-2.0
Cc1ccc(C2(C)NC(=O)N(CC(=O)NC(=O)NCCC(C)C)C2=O)cc1 (stereo not drawn),-2.9,8.1,6%,nt,2.8,0.68,nt
CC(C(=O)N1CCOCC1)N1C(=O)C2C3C=CC(C4CC34)C2C1=O (stereo not drawn),-0.2,-0.4,5%,i,3.0,0.63,-0.4
CC1(C)Cc2c(C#N)c(SCCC#N)nc(N3CCOCC3)c2CO1,4.3,?,-19%,i,4.2,0.65,-0.5
COc1ccc(C(=O)Nc2cccc(NC(=O)c3ccc(OC)cc3OC)n2)c(OC)c1,0.3,3.0,nt,i,-5.2,0.68,-0.9
COc1cc(N)c(Cl)cc1C(=O)OCC(=O)Nc1cccnc1Cl,3.0,0.5,-6%,i,-0.4,0.69,-0.7
CC(NC(=O)/C(C#N)=C/c1ccco1)c1ccccc1 (stereo not drawn),2.7,5.8,11%,i,12,0.74,-84
CC1CCc2c(sc(NC(=O)/C=C/c3cccs3)c2C(=O)O)C1 (stereo not drawn),-5.2,-1.6,nt,i,14,0.7,1.0
COc1ccccc1NC(=O)/C(=N/OCc1ccc(F)cc1)C(C)=O,1.6,9.6,4%,i,nt,nt,1.4
C[C@H](NC(=O)[C@@H]1CSC2c3ccccc3C(=O)N21)C(=O)NC1CCCC1 (stereo partly drawn),-4.7,2.3,4%,i,1.9,0.71,-9.5
CC1(c2nnc(Cc3ccccc3)o2)CC(c2ccc([N+](=O)[O-])cc2)=NO1 (stereo not drawn),-1.4,3.5,nt,i,0.1,0.64,9.8
CC[C@@]1(C(=O)OC)N[C@H](CN(C)C(=O)Nc2ccc(C)cc2)[C@@H]2C(=O)N(C)C(=O)[C@@H]21,0.2,nt,0%,i,-0.9,0.69,-0.8
CCC(=O)N1CCN(c2ccc(NC(=O)COc3ccc(C)cc3C)cc2)CC1,2.2,-4.5,nt,i,5.3,0.66,0.4
O=C(Cn1ccc([N+](=O)[O-])n1)N1CCc2ccccc21,-4.0,1.3,21%,i,2.1,0.67,-0.8
O=C(N/C(=C\c1cccc([N+](=O)[O-])c1)C(=O)N1CCOCC1)c1cccc(Br)c1,0.7,9.7,3%,i,-1.2,0.7,-2.0
Cc1ccc(-c2cc(C(=O)Nc3ccc(S(=O)(=O)N4CC(C)OC(C)C4)cc3)[nH]n2)c(O)c1 (stereo not drawn),18,1.1,-2%,i,2.6,0.71,1.9
Cc1ccnc(NC(=O)c2cccc(NC(=O)c3ccccc3C)c2)c1,-0.4,2.9,14%,i,0.3,0.66,-1.8
Cc1cc(C)c2nc(-c3cccnc3)cc(C(=O)Nc3ccc(S(=O)(=O)Nc4onc(C)c4C)cc3)c2c1,1.2,4.0,12%,i,1.1,0.68,2.0
COc1ccc2oc(-c3ccccc3)c(C(=O)O)c2c1,4.2,2.7,nt,i,-298,0.67,-1.6
CCN(CC)S(=O)(=O)c1ccc(C(=O)N2CCc3ccccc32)cc1,1.1,1.7,10%,nt,2.4,0.69,-0.7
CCCCCOC(=O)Nc1ccc(S(=O)(=O)Nn2cnnc2)cc1,-2.4,3.8,2%,i,2.4,0.69,-4.7
Cc1ccc(NC(=O)c2noc3c2CC(C(C)(C)C)CC3)cc1 (stereo not drawn),-0.6,3.4,-4%,nt,-8.8,0.73,nt
CC(C)(C)OC(=O)C1C(=O)CC(C)(O)C(C(=O)OC(C)(C)C)C1c1cccnc1 (stereo not drawn),2.1,?,0%,nt,4.2,0.71,nt
COc1cc(C(=O)N2CCCCC2c2cc(C(=O)NC(C)C)no2)cc(OC)c1C (stereo not drawn),1.7,nt,nt,i,nt,nt,-7.2
CS(=O)(=O)c1ccc(-c2sc3cc4c(cc3c2C(=O)NN2CCOCC2)OCO4)cc1,1.4,nt,nt,i,-82,0.69,nt
Cc1nc(C)c(-c2ccc(SCc3ccccc3C)nn2)s1,3.1,-0.7,nt,i,2.8,0.67,-14
Cn1c(=O)c2[nH]c(N3CCOCC3)nc2n(-c2ccccc2)c1=O,3.8,2.4,2%,nt,-2.7,0.7,nt
COc1ccc(CC(=O)Nc2c3c(nn2-c2ccccc2C)CS(=O)C3)cc1 (stereo not drawn),-3.9,-0.6,-6%,nt,0.5,0.73,nt
COc1ccc(S(=O)NC2CCCCC2)c(OC)c1C (stereo not drawn),-0.2,-0.2,-5%,nt,0.9,0.75,nt
CC(OC(=O)CNC(=O)c1ccc(Cl)cc1)C(=O)NC1CCCCC1C (stereo not drawn),0.7,2.9,1%,i,-0.5,0.6,-0.2
Nc1nc2ccccc2n1CCOc1ccccc1Cl,-2.5,1.2,-6%,nt,-1.0,0.65,nt
C[C@H]1C=C(C(=O)N2CCN(Cc3ccc4c(c3)OCO4)CC2)O[C@@H](OCc2ccc(CO)cc2)C1,3.7,0.7,3%,i,1.9,nt,1.1&-15
COc1ccccc1-c1c(NC(=O)c2ccco2)n(C)c2ccccc2c1=O,nt,4.4,-9%,i,7.6,0.64,0.5
# (next part)
SMILES,HNF4A DNA FP,RanGTP-Impb inh,Vif TR-FRET,FGF22 binding,UCH37 DUB inh,Ecoli growth,AF4-AF9 inh
O=C(NCc1cccnc1)c1cc(C2CCCCN2C(=O)c2ccc3ccccc3c2)on1 (stereo not drawn),0.1,nt,nt,i,nt,nt,0.8
NC(=O)c1ccccc1N/C=C/C(=O)c1ccco1,-2.2,-21,27%,nt,3.0,0.73,nt
CC1O[C@@H]2O[C@](O[C@H](C)CC[C@@H](C)O)(c3ccccc3)O[C@@H]2C[C@H]1O (stereo partly drawn),2.0,1.7,nt,i,1.7,nt,-9.0
Cc1ccc(C(=O)Nn2cnc3scc(-c4cccs4)c3c2=O)c(O)c1,1.4,-1.3,-4%,nt,0.2,0.66,nt
O=C1Nc2ccccc2N=C(c2ccccc2)C1N(Cc1ccc(F)cc1)C(=O)c1cccnc1 (stereo not drawn),4.6,nt,nt,nt,nt,nt,3.6
COc1ccc(C(=O)/C=C2/C(=O)Nc3ccccc32)cc1OC,1.4,2.3,-5%,i,nt,nt,-0.4
O=C(NCc1ccc(F)cc1F)[C@@H]1CCCN1C(=O)[C@@H]1CCCN1C(=O)c1cccc(Cl)c1,4.0,nt,nt,i,nt,nt,-7.5
COc1ccc(C(=O)NCCCNC(=O)c2cc3ccccc3[nH]2)cc1OC,0.5,-1.2,-10%,i,2.2,0.64,1.1
Cc1csc(N=Nc2ccc(N(C)C)cc2)[n+]1[O-],3.4,nt,-79%,i,nt,nt,52*

# Given with each value named: 3 of the compounds above
COc1ccccc1-c1ccc(/C=N/O)o1
  HNF4A DNA FP = -1.1
  RanGTP-Impb inh = 2.9
  Vif TR-FRET = -2%
  FGF22 binding = i
  UCH37 DUB inh = nt
  Ecoli growth = nt
  AF4-AF9 inh = 2.0
C=CC[C@@H](CC(=O)NCCO)C(=O)NC[C@H](OC(=O)[C@@H](CC=C)CC(=O)OC(C)(C)C)c1ccccc1
  HNF4A DNA FP = -2.8
  RanGTP-Impb inh = nt
  Vif TR-FRET = nt
  FGF22 binding = i
  UCH37 DUB inh = 0.7
  Ecoli growth = nt
  AF4-AF9 inh = -1.5
CC1CCC/C(=N\NC(=O)c2ccncc2)C1 (stereo not drawn)
  HNF4A DNA FP = 4.4
  RanGTP-Impb inh = -1.1
  Vif TR-FRET = nt
  FGF22 binding = i
  UCH37 DUB inh = nt
  Ecoli growth = nt
  AF4-AF9 inh = -1.3

# A portion of the library. The share of hits here may be higher or lower than overall.
